Compound activity as filed in PubChem BioAssay.
HPGD block – qHTS Assay for Inhibitors of HPGD (15-Hydroxyprostaglandin Dehydrogenase); 15-hydroxyprostaglandin dehydrogenase [NAD(+)] (Homo sapiens), P15428; purified HPGD, NADH fluorescence kinetic, PGE2 substrate; Potency, µM, without a hit: top-dose activity change, negative = inhibition, most hits filed as inhibitors; 150,000 compounds, 4.3% hits; active = well fitted inhibition curve with a large enough effect (not every such curve was filed as active); inconclusive = small, poorly fitted or top-dose-only effect, or another doubt; inactive = no such curve, though single readings can be large or run the other way;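 note: top concentration of the series not given in the record; plate controls included wells without enzyme; inactives centre near -10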
Target sequence (P15428 whole entry, looked up): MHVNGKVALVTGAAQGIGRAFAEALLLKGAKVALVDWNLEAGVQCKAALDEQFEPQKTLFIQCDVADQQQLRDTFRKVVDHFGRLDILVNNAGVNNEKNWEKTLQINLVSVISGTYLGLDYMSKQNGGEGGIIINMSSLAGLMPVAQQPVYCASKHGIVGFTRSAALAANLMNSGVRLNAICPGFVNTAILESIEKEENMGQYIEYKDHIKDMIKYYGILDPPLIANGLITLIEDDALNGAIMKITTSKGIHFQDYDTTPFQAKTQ
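NADH formation kinetics: reaction with 30 uM PGE2 and 1 mM NAD+ (final), 20 nM enzyme, Tris-HCl pH 8 with Tween 20, after 15 min compound preincubation at room temperature. Fluorescence change, last versus first of five reads.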
Starred values were filed as active, the others as inactive; ? = inconclusive; & = joins results of further samples. % is set by controls: 0 for no effect and ±100 for the full control effect; potency is the fitted concentration of half-maximal effect. Some of the compounds tested; rates above refer to the full screens.

SMILES	HPGD block
COc1ccccc1NS(=O)(=O)c1cccc(NC(=O)c2ccc3ccccc3n2)c1	-6%
COC(=O)c1ccc(S(=O)(=O)N2CCCCC2)o1	-6%
CC(C)c1ccc(NC(=O)CSc2nnc(-c3ccccn3)n2C)cc1	-3%
COc1ccc(/C=C2\CCC(C3CCCC3)C2=O)cc1Cn1cccn1 (stereo unspecified)	-14%
CC(C)[C@H](NC(=O)[C@H](CC(=O)O)NC(=O)[C@H](CCCCN)NC(=O)[C@@H](N)CCCN=C(N)N)C(=O)N[C@@H](Cc1ccc(O)cc1)C(=O)O	-16%
Cc1ccc(CN(c2ccc(C(=O)N3CCOCC3)cc2)S(C)(=O)=O)cc1	2%
COc1cc(NC(=O)c2cnn3c(C)cc(C)nc23)c(OC)cc1Cl	-30%
CC(=O)Nc1ccc(S(=O)(=O)Nc2nc3ccccc3nc2Nc2ccc(S(N)(=O)=O)cc2)cc1	?
COc1ccc(NS(=O)(=O)c2c(C)[nH]c(=O)[nH]c2=O)c(OC)c1	?
Cc1ccc(NC=C(S(=O)(=O)c2ccccc2)S(=O)(=O)c2ccccc2)c(C)c1	-5%
CCc1ccc(OCC(=O)NCCOc2ccccc2)cc1	-8%
Cn1c2ccccc2c2nnc(SCc3ccc4nonc4c3)nc21	-27%
NCC(O)(CS(=O)(=O)O)c1ccc(Cl)cc1 (stereo unspecified)	-6%
Cc1cc(C)c(NS(=O)(=O)c2ccc(Cl)c(C(=O)O)c2)c(C)c1	-8%
N#Cc1c(N)nc(SCC(=O)NC2CCCCC2)c(C#N)c1-c1ccc(Cl)cc1	-13%
CCN1CCN(c2ncnc3c2sc(=S)n3-c2ccccc2)CC1	0%
COC(=O)C(NC(=O)c1ccc(Cl)cc1)(Nc1nc(C)cs1)C(F)(F)F (stereo unspecified)	-5%
CCOC(=O)CSc1nnc(-c2ccoc2C)n1-c1ccc(C)cc1	-11%
CC1(C)N=C(N)N=C(N)N1c1cccc(CSc2ccccc2)c1	-6%
Cn1nnnc1SCC(=O)NC(=O)Cc1ccccc1	1%
CCOc1ccc(CCNC(=O)C2CCN(c3nnc(-n4cccc4)s3)CC2)cc1OCC	-3%
Cc1cc(C)nc(SCC(=O)N/N=C/c2cc(C)n(-c3ccccc3C)c2C)n1	-14%
O=C(NC1CCCCCCC1)C1CCCN(S(=O)(=O)c2cnc[nH]2)C1 (stereo unspecified)	-5%
COc1ccc(NS(=O)(=O)c2ccc3oc(Nc4ccc5c(c4)OCCO5)nc3c2)cc1	-25%
CC(C)(C)NC(=O)NC(=O)CSc1nnc(-c2ccccc2F)n1N	-3%
Cc1ccc(-c2cc(C(F)(F)F)n3ncc(C(=O)NCc4ccco4)c3n2)cc1	-22%
Cc1cccc(N/N=C/c2ccccc2O)c1	?
CC12CC(c3ccccc3O1)N(C(=O)c1ccco1)C(=S)N2c1ccccc1 (stereo unspecified)	-9%
CCOC(=O)c1ccc(NC2c3ccccc3C(=O)N2c2cccnc2)cc1 (stereo unspecified)	-8%
COCCc1ccc(OC[C@H](O)CNC(C)C)cc1	-7%
COc1ccc(C(=O)N2CCC(C(=O)Nc3cccc(C)c3)CC2)cc1OC	-5%
CCCCCCn1c(=O)c(F)cn(Cc2ccc(OC)c([N+](=O)[O-])c2)c1=O	-22%
Cc1ccccc1NC(NC(=O)c1cccs1)C(Cl)(Cl)Cl (stereo unspecified)	-9%
COC(=O)C1CCN(C(=O)C2CCCCC2)CC1	2%
CCNc1ncc2nc(-c3cc(F)cc(F)c3)c(=O)n(Cc3cccs3)c2n1	?
Clc1ccc(Cc2ccc(SCc3ccccc3)nn2)c(Cl)c1	-17%
COc1cc(C(=O)Nc2nc3ccc(C)cc3s2)ccc1OCc1c(C)noc1C	?
CC(=O)Nc1ccc(Nc2cc(C)nc3c(-c4ccc(Cl)cc4)c(C)nn23)cc1	?
Cc1cccc(-c2noc(CSc3ccccc3)n2)c1	-5%
CCOc1ccc(-n2cc(C(=O)N3CCN(C)CC3)c3cc(OC)c(OC)cc3c2=O)cc1	-4%

Exported bar-delimited: 6 of the compounds above
SMILES | HPGD block
COc1ccc(C(=O)N2CCC(C(=O)Nc3cccc(C)c3)CC2)cc1OC | -5%
CCOC(=O)c1ccc(NC2c3ccccc3C(=O)N2c2cccnc2)cc1 (stereo unspecified) | -8%
Cc1ccc(CN(c2ccc(C(=O)N3CCOCC3)cc2)S(C)(=O)=O)cc1 | 2%
CCOc1ccc(-n2cc(C(=O)N3CCN(C)CC3)c3cc(OC)c(OC)cc3c2=O)cc1 | -4%
COC(=O)C(NC(=O)c1ccc(Cl)cc1)(Nc1nc(C)cs1)C(F)(F)F (stereo unspecified) | -5%
Cc1cc(C)c(NS(=O)(=O)c2ccc(Cl)c(C(=O)O)c2)c(C)c1 | -8%

Structures listed so far that have a furan ring, fused or not:
SMILES	HPGD block
COC(=O)c1ccc(S(=O)(=O)N2CCCCC2)o1	-6%
CCOC(=O)CSc1nnc(-c2ccoc2C)n1-c1ccc(C)cc1	-11%
Cc1ccc(-c2cc(C(F)(F)F)n3ncc(C(=O)NCc4ccco4)c3n2)cc1	-22%
CC12CC(c3ccccc3O1)N(C(=O)c1ccco1)C(=S)N2c1ccccc1 (stereo unspecified)	-9%

Another view of part of the listing above.
mol,HPGD block
CC(=O)Nc1ccc(Nc2cc(C)nc3c(-c4ccc(Cl)cc4)c(C)nn23)cc1,?
Cc1cccc(-c2noc(CSc3ccccc3)n2)c1,-5%

Next section.
SMILES	HPGD block
CSc1cc(-c2ccc(Cl)cc2)n(Cc2ccccc2)c(=O)c1C#N	?
CN(C)CCCNC(=O)CC(c1ccc(F)cc1)c1ccco1 (stereo unspecified)	-4%
CC(C)NCC(O)c1cc(O)cc(O)c1 (stereo unspecified)	-11%&-7%
COC(=O)Cc1cc(=O)oc2cc(OC)ccc12	?
CC(=O)OC1CC[C@@]2(C)C(CC[C@@]3(C)C2CC=C2C4CC(C)(C)CC[C@]4(C(=O)O)CC[C@@]23C)C1(C)C (stereo partly specified)	-5%
COC(=O)c1cccnc1NC(=S)NNC(=O)c1ccccc1	25µM*
Cc1cccc(N2CCN(CC(=O)Nc3nccs3)CC2)c1C	0%
CC(C)CNC(=O)COC(=O)/C=C/c1ccccc1[N+](=O)[O-]	28µM*
COC(=O)CN(c1ccc2c(c1)OCCO2)S(=O)(=O)c1ccccc1	-5%
O=C(NCCCn1ccnc1)c1ccc(S(=O)(=O)N2CCCCCC2)cc1	-5%
S=c1[nH]nc(-c2ccccc2)n1Cc1ccccc1	?
COc1cc(/C=N/NC(N)=S)ccc1OCC(=O)Nc1ccc(C)c(C)c1	?
COCCn1c(=O)c(CCc2ccccc2)nc2cnc(N3CCN(C)CC3)nc21	?
C/C(CCc1ccc2c(c1)OCO2)=N\N=C(/N)SC1CC(=O)N(c2ccccc2F)C1=O (stereo unspecified)	?
CCCc1ccc(OCc2ccc(C(=O)O)o2)c(OC)c1	-18%
COC(=O)c1c(NC(=O)COc2ncnc3ccccc23)sc(C)c1C	-7%
CCS(=O)(=O)N1CCN(c2ccc([N+](=O)[O-])c(NC(C)c3ccccc3)c2)CC1 (stereo unspecified)	-15%
CSc1nc2ccc(Nc3nc(N4CCOCC4)nc(N4CCOCC4)n3)cc2s1	-8%
O=C(CC(=O)c1ccccc1)Nc1cccnc1Cl	-2%
COc1ccc(C(=O)Nc2ccc(-c3cn4ccsc4n3)cc2)cc1S(=O)(=O)N1CCOCC1	-2%
O=C(Nc1cccc(F)c1)N1CCCC2(CCN(C(=O)c3ccncc3)CC2)C1	-7%
CCCCCCSc1nsc(NC(C)=O)n1	-15%
O=C(NCc1ccco1)O[C@@H]1C(=O)c2cc(Br)ccc2O[C@H]1c1ccc2c(c1)OCO2	-8%
COc1cc2c(cc1O)C(Cc1ccc(O)cc1)NCC2 (stereo unspecified)	-3%
NC(=O)C1CCN(C(=O)C2CCN(S(=O)(=O)c3ccccc3)CC2)CC1	-6%
COc1ccc(N2CCN(C(=O)CN3C(=O)C4CC=CCC4C3=O)CC2)cc1 (stereo unspecified)	-3%
Cc1cc2c(cc1C)NC1(C(=O)Nc3ccccc31)C1=C(CC(C)(C)CC1=O)N2 (stereo unspecified)	-16%
CCOC(=O)c1ccc(COC(=O)CCc2nc3ccccc3[nH]c2=O)o1	-17%
CC(C)(C)NC(=O)c1cccc(NC(=O)c2ccc(NC(=O)c3ccco3)cc2)c1	-13%
COc1ccc(-c2ccc(C#N)c(SCC(=O)NCCc3ccccc3)n2)cc1OC	?
CCC(=O)Nc1c(C#N)c2nc3ccccc3nc2n1C1CCCCC1	?
Cc1ccc(NC(=O)c2cc(N3CCOCC3)nc3ccccc23)cc1	-21%
CC(=O)c1cccc(NC(=O)C2CCCN2S(=O)(=O)c2cccc3nsnc23)c1 (stereo unspecified)	-10%
COCCn1nnnc1CN(Cc1ccco1)Cc1cc2cc3c(cc2[nH]c1=O)OCO3	?
Nc1c(C(=O)NC2CC2)c2nc3ccccc3nc2n1-c1ccc2c(c1)OCO2	?
Clc1ccc(OCCn2cnc3ccccc32)c(Cl)c1	-28%
COc1cc(C(=O)NCc2ccc(-c3nc4ccccc4s3)cc2)cc(OC)c1OC	-8%
COC(=O)c1ccccc1N1C(=O)C2C(C1=O)[C@H]1C=C[C@@H]2C1 (stereo partly specified)	4%
O=C(Nc1cccc2ccccc12)NC1CCCc2ccccc21 (stereo unspecified)	?
COc1ccc(C(=O)N2C(=S)NC(=O)/C2=C\c2ccc(C)cc2)cc1	28µM*
COc1cc(OC)cc(C(=O)Nn2cc(C(=O)Nc3c(F)cccc3F)c3ccccc3c2=O)c1	-5%
COc1cccc(NC(=O)N2CCC(C(=O)Nc3ccc(C)cc3C)CC2)c1	-11%
COC(=O)C1(CC(C)C)C=C2C(=C(C)C(=O)C2C)CN1 (stereo unspecified)	-17%
O=C(Nc1ccc2nc(-c3ccc(Br)o3)[nH]c2c1)c1ccco1	-20%
Cc1nnc(NC(=O)C2CCCN(S(=O)(=O)c3ccccc3C(F)(F)F)C2)s1 (stereo unspecified)	1%
CCN(Cc1ccccc1)C(=O)C1CCN(C/C(C)=C/c2ccccc2)CC1	-4%
Cc1nnc(C)c2c(C)n(-c3ccc(Br)cc3)c(C)c12	2%
Cc1cc(C)n(-c2nc3ccccc3c(=O)n2OCC(=O)N(C)C)n1	-18%
Cc1cc(C(=O)CSc2nc3ccccc3o2)c(C)n1CC1CCCO1 (stereo unspecified)	-7%
Cc1nn(CC(=O)Nc2ccc(Cl)cn2)c(C)c1Br	-5%
COCCNC(=O)C(c1ccccc1)N(Cc1cccs1)C(=O)Cn1nnc2ccccc21 (stereo unspecified)	-11%
O=C(Nc1ccc(OCC(F)(F)C(F)F)c(C(F)(F)F)c1)c1ccccc1O	?
CC(C)(C)NC(=O)C(=O)NCc1ccncc1	-3%
CCc1nnc(NC(=O)CSc2nnc(COc3ccc(C)cc3)n2-c2ccccc2)s1	-16%
CSc1ccc(/C=N/NC(=O)c2cccc(Cl)c2)cc1	?
CC(C)C(=O)NC(=S)N1CCc2ccccc21	-13%
CSCC[C@H](NC(=O)Nc1ccc(C)cc1C)C(=O)O	-8%
COc1cccc(/C=N/Nc2ccc(S(=O)(=O)O)cc2)c1O	32µM*
CN(CC(=O)N1CCCCCC1)S(=O)(=O)c1ccc(Br)s1	22µM*
CCOC(=O)c1cccc(NC(=O)CSc2nnc(-c3cccnc3)n2C)c1	-8%
Next records
SMILES	HPGD block
Cc1onc(-c2c(F)cccc2Cl)c1C(=O)OCn1nnc2ccccc2c1=O	13µM*
COC(=O)c1ccc(C(NC(=O)OCc2ccccc2)/C(I)=C/[C@@H](C)C(=O)Nc2ccccc2)cc1 (stereo partly specified)	-25%
CCC(C)NC(=O)C1CCCN1S(=O)(=O)c1ccc(Cl)cc1 (stereo unspecified)	-12%
CSc1nc(-c2ccco2)cc(-c2ccccc2)c1C#N	?
CCCNC(=O)CC1Sc2ccccc2NC1=O (stereo unspecified)	-11%
CCS(=O)c1ccccc1C(=O)O (stereo unspecified)	-12%
Cc1ccn2cc(-c3cccc(NC(=O)c4ccccc4)c3)nc2c1	?
O=C1OC(c2ccccc2)C2(CCCC2)C(=O)C12CCCC2 (stereo unspecified)	-14%
Cn1c(=N)n(CC(=O)c2ccc(Br)s2)c2ccccc21	-2%
O=C(COc1ccc(Br)cc1)N1CCOCC1	-14%
CN/C(=C\[N+](=O)[O-])NCCSCc1ccc(CN(C)C)o1	-8%&-8%&-2%&-6%
O=C(NCC1CCCO1)c1ccc(C(=O)NCC2CCCO2)cc1 (stereo unspecified)	-10%
O=C1C2C(C(=O)N1/N=C/c1ccco1)C1C=CC2C12CC2 (stereo unspecified)	-15%
CCOC(=O)CNC(=O)CSc1nnc(-c2ccncc2)n1-c1ccc(Cl)cc1	-3%
O=C1OCCC1Sc1nnc(-c2ccc(F)cc2)n1Cc1ccccc1 (stereo unspecified)	-3%
CCOc1ccc(-n2ccnc2SCC(=O)Nc2nnc(CC)s2)cc1	-6%
Cc1ccc(C)n1-c1ccc(N2CCOCC2)nc1	?

Single values from above:
`CN/C(=C\[N+](=O)[O-])NCCSCc1ccc(CN(C)C)o1` in HPGD block reads -8%&-8%&-2%&-6%
`O=C1OCCC1Sc1nnc(-c2ccc(F)cc2)n1Cc1ccccc1` (stereo unspecified) in HPGD block reads -3%
